Screening results from PubChem BioAssay.
Arbovirus inh = antivirals against arbovirus infection; arbovirus infection cell-based antiviral screen; inhibition, % at 10 µM; 0.37% of 200,000 active;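 active = inhibition from about 30%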;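 also: bluetongue infection of BSR cells; cell survival read as ATP light after 72 h; 0% = infected wells without compound and 100% = uninfected wells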
Mtb betalactam = beta-lactam sensitization of Mtb H37Rv; M. tuberculosis H37Rv growth with meropenem, percent inhibition; hits of this screen are not shown here; inhibition, % at 25 µM; 0.27% of 330,000 active; AID 434955;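 active = about 74% or more and at least 40 points above the plate without the antibiotic, then above 30% in a dose series; inconclusive = first-round hits that could not be retested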;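 also: growth measured after seven days incubation then overnight dye step; 0% = bacteria only wells and 100% = bacteria with antibiotic; twin plates without the antibiotic show which effects depend on it; some results filed as inactive read as strong as hits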
Mtb H37Rv = M. tuberculosis H37Rv growth inhibitors, H37Rv strain (AID 1626); 0.95% of 220,000 active; M. tuberculosis H37Rv growth inhibition; higher % means a stronger effect; inhibition, % at 10 µM; hits with a dose series show IC50 in µM;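 active = confirmed in a dose series; inconclusive = inhibition above 80% but not taken into the dose series; inactive = below 80% or under 30% at every dose of the series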;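 also: bacteria incubated seven days before Alamar blue readout; 0% = bacteria only wells and 100% = bacteria with antibiotic wells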
YopH PTP inh = inhibitors of Yersinia enterocolitica YopH tyrosine phosphatase; 0.16% of 140,000 active; inhibition, %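 (about 10 µM by stock and volumes)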; fluorescence Ex485/Em525; AID 898;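 active = inhibition of 50% or more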;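 also: controls were vehicle for no effect and minimum signal wells for full effect; inactives centre near -20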
RecA splice inh = inhibitors of M. tuberculosis RecA intein splicing | P9WHJ3 | cell-free RecA intein splicing, fluorescence | inhibition, %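 (about 9 µM by stock and volumes)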 | 0.75% of 290,000 active | AID 2221; in the data active = inhibition above about 30%; inconclusive = no clear call, values can overlap the other calls;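 also: 0% = vehicle wells and 100% = reference inhibitor control wells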
Target sequence (P9WHJ3 whole entry, looked up, canonical isoform): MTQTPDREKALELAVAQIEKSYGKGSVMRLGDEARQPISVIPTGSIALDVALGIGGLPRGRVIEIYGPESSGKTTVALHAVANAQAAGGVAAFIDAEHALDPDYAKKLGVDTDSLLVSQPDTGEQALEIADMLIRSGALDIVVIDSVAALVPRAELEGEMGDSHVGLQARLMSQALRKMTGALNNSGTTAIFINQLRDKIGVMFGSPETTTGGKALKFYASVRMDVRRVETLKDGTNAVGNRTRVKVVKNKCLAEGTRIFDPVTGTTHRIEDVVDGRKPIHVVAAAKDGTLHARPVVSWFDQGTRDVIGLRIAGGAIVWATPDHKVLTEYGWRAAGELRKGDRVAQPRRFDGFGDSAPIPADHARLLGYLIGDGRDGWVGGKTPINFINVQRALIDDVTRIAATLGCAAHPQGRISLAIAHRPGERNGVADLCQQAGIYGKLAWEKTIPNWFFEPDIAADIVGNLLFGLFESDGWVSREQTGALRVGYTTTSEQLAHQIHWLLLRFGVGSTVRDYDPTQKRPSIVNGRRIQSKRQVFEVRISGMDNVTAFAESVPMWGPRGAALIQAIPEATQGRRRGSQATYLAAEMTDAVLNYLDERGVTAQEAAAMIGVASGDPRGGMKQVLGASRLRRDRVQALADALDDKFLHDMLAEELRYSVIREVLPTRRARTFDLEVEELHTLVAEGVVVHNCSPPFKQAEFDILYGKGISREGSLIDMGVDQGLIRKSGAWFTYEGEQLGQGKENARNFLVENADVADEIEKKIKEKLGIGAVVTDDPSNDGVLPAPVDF
Arbovirus inh repeat = also measured in Arbovirus inh; calls as there; inhibition, %; measured here: 10K subset replicate screen; many hits read low in the repeat;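 first of two repeat runs on a subset; 0% = infected and 100% = uninfected wells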
* = called active by the depositor; ? = inconclusive; . = not tested or not shown. Not all compounds are listed; rates above refer to the full screens.

Start of the listing, in advance, four compounds:
SMILES	Arbovirus inh	Mtb betalactam	Mtb H37Rv	YopH PTP inh	RecA splice inh	others
Nc1nc(=S)c2ncn(C3CCCC3)c2[nH]1	.	-7	-4%	.	-3.0
COc1ccc(N=Cc2ccc(-c3ccccc3)o2)cc1	-15	94	91%	.	1.1
CCOC(=O)c1c(NC(=O)C2CC=CCC2C(=O)O)sc(C)c1CC (stereo not drawn)	4	-8	-4%	.	1.2
O=C(Nc1ccc(C(=O)N2CCCCC2)cc1)c1ccccc1Cl	.	-9	.	.	1.4

This part in full (from the top)
SMILES	Arbovirus inh	Mtb betalactam	Mtb H37Rv	YopH PTP inh	RecA splice inh	others
Nc1nc(=S)c2ncn(C3CCCC3)c2[nH]1	.	-7	-4%	.	-3.0
COc1ccc(N=Cc2ccc(-c3ccccc3)o2)cc1	-15	94	91%	.	1.1
CCOC(=O)c1c(NC(=O)C2CC=CCC2C(=O)O)sc(C)c1CC (stereo not drawn)	4	-8	-4%	.	1.2
O=C(Nc1ccc(C(=O)N2CCCCC2)cc1)c1ccccc1Cl	.	-9	.	.	1.4
Cc1ccc(CN2CCSc3ccc(C(=O)NCCCN4CCOCC4)cc32)cc1	.	2	.	.	-14
CCOC(=O)c1cnc2c(C)cccc2c1Nc1cccc(C(=O)O)c1	.	4	0%	.	1.8
COCCOC(=O)C1=C(N)OC2=C(C(=O)CCC2)C1c1cccnc1 (stereo not drawn)	12	2	-6%	-49	-0.5
CN(C)CCCN(C(=O)c1ccc(S(=O)(=O)N2CCCCCC2)cc1)c1nc2c(F)cccc2s1	.	-1	.	.	0.9
OCCCc1nc2ccccc2[nH]1	0	1	-9%	.	-0.5
COC(=O)C1NN=C(C(=O)c2ccc(Br)cc2)C1c1cccc(Br)c1 (stereo not drawn)	4	6	-1%	-30	12
COCCCNC(=O)/C(C#N)=c1\s/c(=C\c2ccccc2OC(F)F)c(=O)n1CCCOC	-9	0	-1%	-23	-6.9
O=S(=O)(Nc1cccc(-c2nnco2)c1)c1ccc(F)cc1F	.	-6	-8%	.	1.2
O=C(CSc1nnc(SCc2ccccc2Cl)s1)N/N=C/c1c[nH]c2ccccc12	-12	7	0%	-25	-1.3
O=C(Cn1nnc(-c2ccc(Cl)cc2)n1)NC1CCN(Cc2ccccc2)CC1	-8	-5	-2%	-23	-1.7
COc1ccc(/C=N/n2c(SC)nnc(C(C)(C)C)c2=O)cc1	2	7	1%	-6	1.5
Cc1ccc(S(=O)(=O)NCc2n[nH]c(=S)n2C)cc1	14	-5	-7%	-45	.
O=C(CSCC(=O)N1CCN(c2ccccc2)CC1)Nc1nc(-c2ccc(Cl)s2)cs1	3	-5	8%	-52	5.5
COc1cccc2cc(C(=O)N(C)C3CCN(C)CC3)c(=O)oc12	6	-1	-9%	-41	6.9
CC(C(=O)Nc1ncc([N+](=O)[O-])s1)N1C(=O)c2ccccc2S1(=O)=O (stereo not drawn)	.	-1	.	.	1.2
Cc1ccc(N=Cc2cc(C)n(C3CCCC3)c2C)cc1	11	31	-2%	-21	0.2
CCC(C)[C@H](NC(=O)[C@H](Cc1ccccc1)n1c(=O)[nH]c2ccccc2c1=O)C(=O)NCC1CCC(C(=O)O)CC1 (stereo partly drawn)	.	6	.	.	-2.7
CC(=O)c1ccc(NC(=O)C(Cc2ccccc2)n2cccc2)cc1 (stereo not drawn)	.	3	1%	.	1.9
CCc1ccc(NC(=O)COc2cccc(-n3cnnn3)c2)cc1	.	-1	.	.	-1.2
NS(=O)(=O)c1ccc(N/N=C/c2ccccc2Br)cc1	-24	-1	4%	.	2.1
Cc1cccc(N2CCN(C(=O)c3ccnn3C)CC2)c1C	.	-14	.	.	-1.2
O=C(O)CC(NC(=O)C(F)(F)F)c1ccc2c(c1)OCO2 (stereo not drawn)	4	2	5%	.	-1.6
O=C(CN1C(=O)c2ccccc2C1=O)NCc1ccccn1	3	-4	.	-34	.
CC(C)CC(=O)Nc1ccc(-c2cn3cccnc3n2)cc1	.	-5	.	.	-7.0
COc1cccc(OCc2cc(C(=O)N(C)Cc3nc4ccccc4[nH]3)no2)c1	.	0	.	.	3.7
O=C(Nc1ccc(F)cc1)c1cc(S(=O)(=O)N2CCCCC2)cs1	2	-18	-2%	-45	-4.4	Arbovirus inh repeat=12
CC(C)(C)NC(=O)CSc1nc(N)c(-c2ccccc2)c(=O)[nH]1	-1	3	-9%	.	-0.7
C/C(=N/OC(=O)CC(C)C)c1cc(-c2ccc(Cl)cc2)no1	-7	-2	4%	.	1.8
Cc1ccc(-c2nn(CCC(=O)O)cc2CCC(=O)O)cc1	4	-8	-5%	-12	-2.3
O=c1[nH]c(-c2cccnc2)nc2ccccc12	2	1	-4%	-37	-1.7
CCOC(=O)C(C#N)(Cc1cc(OC)cc(OC)c1)Cc1cc(OC)cc(OC)c1	.	0	-5%	.	5.4
Cc1ccc(C(=O)O/N=C(\N)Cc2cccc3ccccc23)cc1	.	2	.	.	6.6
CCO[C@H]1OC(C(N)=O)=C[C@@H](c2ccc(Br)cc2)[C@@H]1CCCO	1	-9	-4%	.	-3.3
CC1CCN(C(=O)C(=O)c2cn(CC(=O)N3CCCCCC3)c3ccccc23)CC1	.	-1	.	.	-3.5
C=CCN1C(=O)/C(=C2/Sc3ccccc3N2C)SC1=Nc1ccccc1C	-2	-4	0%	1	-0.6
COC(=O)CN(C#N)c1nc(SC)nc(N(C)C)n1	3	99	1%	-69	9.5
C=CCNc1nc(SC)nc2ccsc12	5	53	20%	-18	0.1
CN1C(=S)SC(N(O)C(=O)Nc2ccc(Cl)c(Cl)c2)C1(C)C (stereo not drawn)	19	99	?	7	4.1
NCC(=O)Nc1ccc(Cl)cc1C(=O)c1ccc[nH]1	.	.	7%	.	1.2
CSc1cccc(NC(=O)N2CCCC(CNS(=O)(=O)Cc3ccccc3)C2)c1 (stereo not drawn)	-10	4	-9%	.	2.0
O=C(CSc1nnc(NC(=O)c2cccc(F)c2)s1)NCC1CCCO1 (stereo not drawn)	.	?	.	.	-0.7
CN(C)C(=O)CN1C(=O)C2CC=C(Cl)CC2C1=O (stereo not drawn)	4	-1	.	-19	-0.3
COc1ccc2nc3sc(C(=O)NCCN4CCc5ccccc5C4)cc3cc2c1	16	9	11%	-1	0.5
C=Cn1c(C(=O)O)ccc1-c1ccc(OC)cc1	-7	2	-1%	.	-9.8
COc1cccc(NC2=C(C#N)C(=O)NC(c3cccc(OC)c3O)S2)c1 (stereo not drawn)	.	2	-8%	.	-1.3
Cn1ccsc1=NC(=O)c1ccccc1F	-2	4	19%	.	2.8
CC(C)COc1ccc(C(=O)NC(Cc2c[nH]c3ccccc23)C(=O)NN)cc1 (stereo not drawn)	.	0	-3%	.	-0.4
Cc1ccc(S(=O)(=O)N2CCN(Cc3ccccn3)CC2)cc1	5	2	51%	.	6.0
COc1ccc(C(=O)N2CCOC23CCN(c2ncccn2)CC3)cc1	10	-7	0%	.	0.8
CN(Cc1cn[nH]c1-c1cc2ccccc2o1)CC1CCOCC1	-6	-10	2%	.	-0.4
Cc1cccc(C)c1OCCCN1CCOCC1	.	-3	.	.	0.0
C=CCNC(=O)c1ccc(-c2nc(-c3ccc(Cl)c(Cl)c3)cs2)cc1	-1	-2	1%	-45	4.5
CCCSc1cc(=O)n(-c2ccccc2)nc1C(=O)OCC	0	32	-1%	-31	-0.1
O=C(COC(=O)CCc1nc2ccccc2s1)Nc1cccc(S(=O)(=O)N2CCOCC2)c1	5	3	-6%	3	0.0
Cc1nn(Cc2ccccc2)c2sc(C(=O)N3CCN(Cc4ccc5c(c4)OCO5)CC3)cc12	-12	83	18%	2	6.8
CCCn1c(N)c(N(CCOC)C(=O)c2cc(Cl)nc3ccccc23)c(=O)[nH]c1=O	.	-10	.	.	-1.5
Additional compounds follow:
SMILES	Arbovirus inh	Mtb betalactam	Mtb H37Rv	YopH PTP inh	RecA splice inh	others
O=C(CCc1nnc2ccc(NCc3ccco3)nn12)Nc1cccc(F)c1	.	11	.	.	-2.8
O=C(CN1CCN(C2CCCCC2)CC1)NCCC1=CCCCC1	-8	2	-3%	-22	0.4
CCOC(=O)c1ccc(NC(=O)c2cccc3c2C(=O)N(CC2CCCO2)C3)cc1 (stereo not drawn)	.	-6	.	.	4.1
COC(=O)c1sccc1NC(=O)c1sccc1C	-1	2	0%	4	-0.9
Cc1cc(Nc2ccc(C(=O)N3CCCCC3)cc2)c2cccc(C)c2n1	.	3	.	.	-3.7
CC(C)c1ccc(N=c2c([N+](=O)[O-])nn(-c3ccc4c(c3)OCCO4)n2O)cc1	6	1	-6%	-32	-1.0
COc1ccc(S(=O)(=O)Nc2ccccc2C(=O)NCc2cccnc2)cc1C	.	2	.	.	-1.2
CCN(CC)S(=O)(=O)c1cc(NC(=O)c2cc(-c3ccccn3)nc3ccccc23)ccc1C	-9	92	79%	.	.
COc1ccc(NC(=O)c2ccccc2)c([N+](=O)[O-])c1	-2	-6	8%	.	-1.3
COC(C[C@H](O)C[C@H](O)[C@@H](C)OCc1ccccc1)OC	.	-7	-6%	.	-1.7
Cc1ccccc1CNc1ccc(C(CC(N)=O)NC(=O)c2ccc(Br)cc2)cc1[N+](=O)[O-] (stereo not drawn)	.	24	14%	.	-1.1
O=C(Nc1ccc(O)cc1)c1cc2n(n1)C(C(F)(F)F)CC(c1ccco1)N2 (stereo not drawn)	-29	15	-1%	-42	1.2
CC(CCN1CCN(c2ccc(F)cc2)CC1)c1ccccc1 (stereo not drawn)	.	5	.	.	-4.3
CCNS(=O)(=O)c1ccc(NC(=O)Nc2cccc(OC)c2)cc1	11	-6	-7%	-11	2.7
CCN1CCN(S(=O)(=O)c2ccc(Oc3ccccc3OC)cc2)CC1	8	5	2%	.	3.2

The closing 2 entries of the section above come first, to join the parts:
SMILES	Arbovirus inh	Mtb betalactam	Mtb H37Rv	YopH PTP inh	RecA splice inh	others
CCNS(=O)(=O)c1ccc(NC(=O)Nc2cccc(OC)c2)cc1	11	-6	-7%	-11	2.7
CCN1CCN(S(=O)(=O)c2ccc(Oc3ccccc3OC)cc2)CC1	8	5	2%	.	3.2
COc1cccc(NC(=O)NCc2ccccc2Cl)c1	.	-6	.	.	3.1
Cc1cc(C)nc(N2CCCC(C(=O)NC3CCCC3)C2)n1 (stereo not drawn)	-7	6	-4%	-24	-1.7
COc1ccc(/C=C2\SC(N)=NC2=O)cc1Br	.	7	.	.	2.7
CCOC(=O)c1c(C)[nH]c(NC(=O)N2CCOCC2)c1C	0	-8	0%	-43	-0.2
Cc1ccc2nc(C(Cl)(Cl)Cl)nc(N/N=C/c3ccncc3)c2c1	1	1	2%	.	0.2
Cc1nccc(-c2ccc(-n3c(C)ccc3C)cc2)n1	-14	84	>100µM*	.	5.0
O=C(NC(=S)N1CCCCC1)c1csc([N+](=O)[O-])c1	.	99	.	.	0.1
Cc1ccc(C(=O)Nc2sc3c(c2C#N)CCCCC3)cc1C	-6	0	-11%	-25	8.0
O=C(CCCOc1ccc(Cl)cc1Cl)Nc1ccncc1	5	2	-5%	-28	4.5
O=C(NCCC1=CCCCC1)c1ccc(Br)o1	-1	-3	-4%	7	2.9
Cc1ccc(S(=O)(=O)N/N=C(\c2ccccc2)c2cccnc2)cc1	0	2	5%	.	-0.8
NS(=O)(=O)c1ccc(CCNC(=O)CCCn2c(SCC(=O)N3CCCC3)nc3ccsc3c2=O)cc1	-1	-1	0%	.	1.9
CCCC(=O)NCCSC	2	-1	-3%	-22	.
Cc1ccc2nc(N3CCN(C)CC3)[nH]c2c1	15	-3	-4%	11	-2.7
O=C(Nc1ccccc1)C1=C[C@H](C2CCCCC2)C[C@H](OCc2ccc(CO)cc2)O1	-17	9	-2%	.	6.0
COc1cccc(CNC(=O)CCCNS(=O)(=O)c2cccs2)c1	-1	2	-4%	1	-0.4
c1ccc(SCc2nc3ccccc3[nH]2)nc1	-3	-11	4%	-35	-3.3

Fetched one by one from the entries so far:
SMILES	Arbovirus inh	Mtb betalactam	Mtb H37Rv	YopH PTP inh	RecA splice inh	others
Cc1ccc(S(=O)(=O)N/N=C(\c2ccccc2)c2cccnc2)cc1	0	2	5%	.	-0.8
Cc1ccc2nc(C(Cl)(Cl)Cl)nc(N/N=C/c3ccncc3)c2c1	1	1	2%	.	0.2
O=C(NCCC1=CCCCC1)c1ccc(Br)o1	-1	-3	-4%	7	2.9
CCCC(=O)NCCSC	2	-1	-3%	-22	.
O=C(Nc1ccccc1)C1=C[C@H](C2CCCCC2)C[C@H](OCc2ccc(CO)cc2)O1	-17	9	-2%	.	6.0
